Menin-MLL FL inh: menin-MLL binding inhibition, fluorescein peptide | Fluorescence polarization, fluorescein-MLL peptide displacement from menin | FP activity change, % at 61.4 µM | 290,000 tested, under 10 active | AID 1766; inconclusive = falling polarisation curve, or a change in total fluorescence; inactive = total fluorescence flat and polarisation flat or rising; no compound was filed as active; the % refers to the polarisation; negative = inhibition;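 note: % of control where 0% means no effect; inhibitors lower the polarisation; unlabelled MLL peptide was the positive control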
Sfp PPTase inh: blocks B. subtilis Sfp PPTase activity | Q9F4F7 | Biochemical Sfp PPTase activity, qHTS | Potency, µM, for inactives: max response, negative = inhibition, hits mostly inhibitors | actives 3.5% (n = 310,000) | AID 1490; active = well fitted inhibition curve with a large enough effect; inconclusive = small, poorly fitted or top-dose-only effect, or another doubt; inactive = no such curve, though single readings can be large or run the other way;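 note: the enzyme is Sfp with the accession as filed and its product quenches rhodamine fluorescence; potency is the fitted concentration of half-maximal effect; 0% = enzyme reaction without inhibitor and -100% = no enzyme wells; top concentration of the series not given in the record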
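Sfp 15 nM + cpd, 15 min RT; start w/ rhodamine-CoA 5 uM, BHQ-2-YbbR 12.5 uM (final); 50 mM Hepes pH 7.6, 10 mM MgCl2, 0.01% NP-40, 0.01% BSA; read 525/598 nm at 0 and 30 min.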
gsp antagonist: antagonizes gsp, the McCune-Albright syndrome mutation; gsp-mutant cells, cAMP HTRF, 30 min; control for the full effect not named in the record; Potency, µM (titrated, usually from 76.9 µM), for the others: top-dose activity change, negative = inhibition, actives largely listed as inhibitors; actives 0.4% (n = 340,000); AID 624288; active = falling curve of any shape with a large fitted effect; inconclusive = falling curve, mostly with a smaller effect; inactive = flat or rising curve; cell line not stated here;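 note: intracellular cAMP measured with PDE inhibitor Ro 20-1724 present during compound exposure; potency is the fitted concentration of half-maximal effect; % is set by controls: 0 for no effect and ±100 for the full control effect; nearly all actives have a fitted effect of over 65% in size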
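HTRF cAMP measurement after 30 min RT detection following 30 min, 37C compound treatment alongside […] (added as 300 uM solution) in G418-selected cells seeded at 2000/well and grown 16–24 h.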
ClpP mod: qHTS Assay for Activators of ClpP; ATP-dependent Clp protease proteolytic subunit (Bacillus subtilis (strain 168)), P80244; purified B. subtilis ClpP, FRET peptide cleavage, 20 min; Potency, µM (doses to about 57.5 µM), for the others: at the top dose activity change, negative = active; actives 1.9% (n = 340,000); active = well fitted falling curve with a large enough effect; inconclusive = small, poorly fitted or top-dose-only effect; inactive = no such curve, though single readings can be large or run the other way; note: potency is the fitted concentration of half-maximal effect; the source files actives as falling curves though it sought activators and does not explain the sign; nearly all actives have a fitted effect of over 65% in size; many hits overshoot -100%
Target sequence (P80244 whole entry, looked up): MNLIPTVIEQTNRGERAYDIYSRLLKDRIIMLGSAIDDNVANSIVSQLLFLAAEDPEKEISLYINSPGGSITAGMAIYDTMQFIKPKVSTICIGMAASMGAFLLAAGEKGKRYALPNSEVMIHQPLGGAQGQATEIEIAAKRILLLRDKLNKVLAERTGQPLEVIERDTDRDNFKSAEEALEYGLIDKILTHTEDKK
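FRET quenching reversal measured ClpP activation: 10 microg/mL B. subtilis ClpP at pH 8 with the FRET-FV decapeptide, read at 430 nm after 320 nm excitation. The 20-min minus 0-min signal was scaled between DMSO/no-enzyme wells and ADEP (5.8 microM final).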
TRPV1 PAM: human TRPV1 potentiation. TRPV1-expressing cells, Fluo-8 calcium influx, capsaicin EC20 potentiation; host cell line not named in the record; control for the full effect not named in the record. potentiation, % at 8.33 µM. actives 0.02% (n = 320,000). AID 540277; active means potentiation above 80%; inconclusive means 30% to 80%; inactive means below 30%; note: 0% is about no effect
Target sequence (Q8NER1 whole entry, looked up): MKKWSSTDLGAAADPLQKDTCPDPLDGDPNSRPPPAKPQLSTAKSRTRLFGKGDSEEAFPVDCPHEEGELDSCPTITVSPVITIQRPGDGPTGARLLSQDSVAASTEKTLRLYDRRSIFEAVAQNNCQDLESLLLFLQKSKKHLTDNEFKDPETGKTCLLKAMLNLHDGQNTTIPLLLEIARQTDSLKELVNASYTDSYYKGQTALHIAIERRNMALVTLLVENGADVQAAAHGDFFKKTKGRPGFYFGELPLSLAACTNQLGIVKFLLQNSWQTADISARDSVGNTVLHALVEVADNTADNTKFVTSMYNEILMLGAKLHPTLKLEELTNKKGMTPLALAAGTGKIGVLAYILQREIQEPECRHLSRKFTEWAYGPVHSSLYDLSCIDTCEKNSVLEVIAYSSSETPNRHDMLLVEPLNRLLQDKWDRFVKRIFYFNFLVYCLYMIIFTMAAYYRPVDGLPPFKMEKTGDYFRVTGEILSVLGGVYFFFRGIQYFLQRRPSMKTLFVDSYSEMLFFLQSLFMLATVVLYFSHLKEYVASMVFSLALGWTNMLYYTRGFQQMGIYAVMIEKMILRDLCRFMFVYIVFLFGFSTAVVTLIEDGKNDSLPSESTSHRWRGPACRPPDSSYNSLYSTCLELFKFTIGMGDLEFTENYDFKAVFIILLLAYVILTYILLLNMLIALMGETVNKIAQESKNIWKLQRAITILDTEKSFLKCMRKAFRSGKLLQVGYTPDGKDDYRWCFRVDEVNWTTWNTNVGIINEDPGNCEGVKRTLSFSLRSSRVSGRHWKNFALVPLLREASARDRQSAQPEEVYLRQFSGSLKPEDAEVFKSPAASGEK
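TRPV1-expressing cells were cultured overnight at 35.5C and loaded with Fluo-8 calcium dye for 40 to 90 min at room temperature. After a 10 s baseline, compound was added and calcium influx was read kinetically for 3 min (ex 480/em 520 nm).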
CtBP-E1A inh: inhibitors of CtBP/E1A interaction; AlphaScreen GST-E1A/His-CtBP binding, 1536-well; stronger effect = lower value; control for the full effect not named in the record; activity change, % (test concentration not listed); actives 0.49% (n = 340,000); AID 651724; in the data active means activity change below about -65%; inconclusive means about -30% to -65%; inactive means above about -30%; note: % is set by controls: 0 for no effect and ±100 for the full control effect; compound concentration not given in the record
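Steps: dispense buffer (Tris pH 8.0, NaCl 300 mM, TCEP 1 mM, BSA, Tween 20); add 5X protein mix (GST-E1A, His-CtBP, 125 nM each); pin 23 nL compound; 2 h at 37 °C, dark; add 5X beads (50 ug/mL); 1 h; read.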
gsp ag: activates gsp, the McCune-Albright syndrome mutation; gsp mutant cells, cAMP HTRF, 30 min; control for the full effect not named in the record; Potency, µM (series often up to 76.9 µM), for inactives: at the highest dose activation (cAMP increase), hits mostly activators; actives 0.13% (n = 340,000); active = well fitted activation curve with a large enough effect; inconclusive = small, poorly fitted or top-dose-only effect, or another doubt; inactive = no such curve, though single readings can be large or run the other way; cell line not stated here;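 note: phosphodiesterase inhibitor Ro 20-1724 added with compounds to block cAMP breakdown; potency is the fitted concentration of half-maximal effect; nearly all actives have a fitted effect of over 60% in size; about a fifth of the inactives were tested at one dose only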
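Cells in DMEM/10% FBS with G418 were pretreated with compounds in DMSO plus […] (300 uM stock) for 30 min at 37C. cAMP was measured by HTRF (cAMP-d2 plus anti-cAMP antibody-K) after 30 min at room temperature.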
Active calls of the source: *; ? = inconclusive; / = not tested or not shown; [ ] = another dose, or the depositor's remark.

Every second line gives: Menin-MLL FL inh	Sfp PPTase inh	gsp antagonist	ClpP mod	TRPV1 PAM	CtBP-E1A inh	gsp ag
1	NNc1nc(-c2ccccc2)nc(-c2ccccc2)c1Br
→ /	/	-11.7%	1.1%	/	/	-1.1%
2	CCCn1c(N2CCN(C(=O)Nc3ccc(Cl)cc3)CC2)nc2ccccc21
→ 0.7	9.1%	-26.5%	0.7%	3.3	-2.3	-26.4%[15.4 µM]
3	COc1ccc(S(=O)(=O)Nc2ccc(C(N)=O)cc2)cc1C(=O)N1CCCCCC1
→ -4.9	9.3%	9.3%	/	10.2	-8.0	5.6%[15.4 µM]
4	COc1ccc(N(CC(=O)NCc2cccs2)S(=O)(=O)c2cccnc2)cc1
→ 6.1	2.9%	-1.2%	-1.0%	/	0.4	0.6%
5	CCOC(=O)[C@H]1[C@H]2COc3cc(OC)ccc3[C@@H]2N2C(=O)CN(Cc3ccc(OC)cc3)C(=O)[C@@]12C
→ /	/	-5.9%	-2.0%	-22.2	-25.5	/
6	CCCCOC(=O)Cn1c(=O)c2c(nc3n2CCCCN3c2ccc(C)cc2)n(C)c1=O
→ -0.6	-2.4%	-26.8%	-2.0%	12.4	-9.1	14.6%
7	CCS(=O)(=O)N1CCN(c2ccc([N+](=O)[O-])c(NCc3cccnc3)c2)CC1
→ -7.2	0.8%	-6.5%	-2.4%	5.4	-14.0	7.2%
8	CC(=O)Nc1ccc(C(=O)OC2CCOC2=O)cc1 (stereo not given)
→ 2.1	7.0%	-14.9%	-2.5%	0.8	2.8	26.5%
9	COc1ccc(CN2C(=O)CN=C2Nc2cc(C)ccc2C)cc1
→ 6.2	6.5%	-4.6%	0.8%	3.9	-4.6	-2.6%
10	COc1ccccc1C1NC(=O)NC(C)=C1C(=O)OC1CCCCC1 (stereo not given)
→ -0.5	6.9%	4.1%	-2.3%	14.1	-4.2	-5.9%
11	CS(=O)(=O)N(CCc1ccccc1)CC(N)=O
→ 0.5	7.8%	4.2%	1.7%	-12.2	8.1	-2.0%
12	Cc1ccc(S(=O)(=O)N(C)C)cc1NC(=O)C1CCCCC1
→ 1.5	12.9%	1.4%	/	-1.5	6.8	18.9%
13	OB(O)c1cc2ccccc2o1
→ -1.2	13.6%	/	?	/	/	/
14	CCOc1ccc(/C=N/NS(=O)(=O)c2ccc(C)cc2)cc1OC
→ 6.5	-43.1%	5.2%	0.8%	2.5	/	-13.8%
15	O=C(CCn1c(=O)sc2ccccc21)NCc1ccco1
→ -1.5	11.8%	-1.6%	-0.5%	6.3	8.5	-18.4%
16	CCOCC(=O)Nc1ccc(-c2cn3cccnc3n2)cc1
→ -1.8	12.6%	8.2%	-33.1%	19.6	42.7	?
17	O=[N+]([O-])c1ccccc1/C=N/n1c(COc2ccccc2)n[nH]c1=S
→ 0.4	56.2µM*	-10.1%	0.9%	-26.1	-19.0	-34.2%
18	O=C(CCSCc1cccc(F)c1)NCc1ccc(F)cc1
→ 3.8	-0.5%	2.0%	0.3%	-19.8	/	18.4%
19	COc1ccc(CNC(=O)COC(=O)c2ccc(OCC3CCCO3)cc2)cc1 (stereo not given)
→ /	/	14.7%	0.9%	-1.7	/	-13.4%
20	Cc1ccnc(N2C(=O)OC(C)(C)C2(C)O)c1 (stereo not given)
→ -2.4	14.7%	2.6%	-1.7%	2.4	-0.5	25.7%
21	Fc1ccc(NC(=S)Nc2cccc3ccccc23)cc1F
→ 0.1	-16.8%	12.8%	3.5%	-0.8	-11.0	0.7%
22	C=CCn1c(=O)c2c3c(sc2n2c(Nc4ccc(OC)cc4)nnc12)CCCC3
→ 3.4	-10.2%	?	-0.9%	0.4	-17.3	-17.7%
23	N#C/C(=C\c1ccc(N2CCOCC2)o1)C(=O)NC1CCCCC1
→ ?	44.7µM*	-16.4%	/	-20.5	-0.9	-52.6%[inhibitor]
24	CCCCS(=O)(=O)N1CCC(C(=O)NCC2CCCO2)CC1 (stereo not given)
→ -1.2	17.5%	7.5%	/	-13.8	-13.6	-47.7%[inhibitor]
25	CCOC(=O)/C(N=Nc1ccc(C(=O)O)cc1[N+](=O)[O-])=C(\C)O
→ 4.1	3.0%	12.9%	-3.1%	-2.1	9.5	-13.4%
26	Cc1ccc(C(=O)NNC(=S)NC(=O)c2ccc(Cl)cc2)cc1
→ 4.2	17.4%	1.8%	3.0%	/	-8.0	?
27	CC#CCN1c2ccccc2[C@]23C[C@@H](C(=O)OC)N(C(=O)c4ccc(Br)cc4)C2=NC(C(=O)OC)=C(C(=O)OC)[C@H]13
→ -3.5[11.7 µM]	-13.1%	-9.3%	-0.4%	/	-4.2	3.0%
28	Cc1ccc(NC(=S)NC(=O)C2CC2)cc1Cl
→ /	8.1%	-17.9%	1.4%	6.3	3.2	24.3%
29	CC(C)CNC(=O)c1ccccc1SCC(=O)NC12CC3CC(CC(C3)C1)C2
→ 8.1	15.5%	-24.7%	-0.6%	1.8	12.1	9.1%[15.4 µM]
30	CCc1c(C)sc(NC(=O)OC)c1C(=O)N1CCCCC1
→ -15.0	50.1µM*	-7.0%	-1.1%	-3.8	-3.1	14.7%
31	Cc1ccc(N(CCC#N)C(=O)CN2C(=O)NC(Cc3ccccc3)C2=O)cc1 (stereo not given)
→ -1.9	36.7%[activator]	0.4%	/	2.4	6.5	?
32	Cc1nnc(NC(=O)CCS(=O)(=O)c2ccccc2)s1
→ -0.6	5.0%	2.8%	/	1.0	1.1	?
33	COc1cccc(NCCC(=O)c2cccc([N+](=O)[O-])c2)c1
→ -0.7	-4.9%	-9.3%	0.3%	-8.9	-3.5	0.0%[15.4 µM]
34	Cc1cc(C)cc(-n2c(=O)c3ccccc3n(CC(=O)NCC3CCCO3)c2=O)c1 (stereo not given)
→ 0.5	11.7%	4.4%	/	-8.3	2.4	?
35	Cc1cccc(NCC(=O)N/N=C\c2ccccn2)c1
→ 5.5	?	-10.1%	0.3%	-1.6	-0.6	2.1%[15.4 µM]
36	CCOc1ccccc1NC(=O)COC(=O)c1ccc(S(=O)(=O)N2CCCC2)cc1
→ /	/	?	-1.1%	11.9	-0.8	-9.1%[15.4 µM]
37	CCOC(=O)c1c(CN2CCCCC2C)oc2ccc(OC)cc12 (stereo not given)
→ -1.4	4.3%	-13.1%	-12.5%	-13.0	9.7	?
38	CCc1nc2ccccc2n1CCc1ccccc1
→ -3.8	-27.9%	-7.1%	/	-3.0	-5.3	-1.2%[15.4 µM]
39	COc1cc(NC(=O)Cc2ccc([N+](=O)[O-])cc2)c(C(=O)O)cc1OC
→ -0.4	-13.1%	10.4%	-3.0%	-2.9	-21.1	0.5%
40	CCc1cc2c(=O)c(-c3nc4ccccc4n3C)coc2c(CN2CCCCC2C)c1O (stereo not given)
→ 0.3	8.0%	-7.3%	-11.8%	-24.0	9.8	12.4%
41	COc1ccccc1CNC(=O)COC(=O)COc1ccccc1Cc1ccccc1
→ /	/	7.4%	1.3%	-13.9	16.6	-6.8%
42	C/C(CC(=O)Nc1ccc(C)cc1C)=N\NC(=O)C(C)C
→ -3.1	2.6%	11.8%	/	-1.9	5.1	2.1%[15.4 µM]
43	COC(=O)c1cc(NC(=O)Cc2ccc(OC)c(OC)c2)cc(C(=O)OC)c1
→ 1.6	-1.1%	13.4%	-7.2%	-30.8	-2.3	-13.9%
44	CCOC(=O)c1ccccc1NC(=O)c1ccc(N(C)S(C)(=O)=O)cc1
→ 3.2	19.5%	5.3%	-0.2%	10.6	6.5	-6.9%
45	CC(=O)c1cccc(N(C(=O)CNC(=O)c2ccco2)C(C(=O)NCc2ccco2)c2ccccc2)c1 (stereo not given)
→ -1.9	14.9%	-3.6%	1.0%	12.7	/	29.8%
46	Cc1ccc(C(=O)N/N=C\c2ccc(OC(=O)c3cccs3)cc2)cn1
→ 0.3	10.6%	4.6%	14.6%	3.5	-3.9	11.6%
47	Cc1c(OCC(=O)OC(C)C)ccc2c3c(c(=O)oc12)CCC3
→ -0.4	15.0%	?	31.6µM*	-1.5	4.8	5.4%
48	N#C/C(=C/c1cccnc1)c1ccccc1
→ 3.1	-9.9%	1.3%	-0.9%	-14.8	6.0	-16.0%[15.4 µM]
49	O=C(COc1c(Cl)cc(Cl)cc1Cl)c1ccc(Cl)cc1
→ 1.9	-15.4%	12.6%	0.8%	28.2	5.3	2.2%
50	O=C(NCc1ccc(F)cc1)C(=O)NCC1OCCN1S(=O)(=O)c1ccc2c(c1)OCCO2 (stereo not given)
→ 1.1	10.2%	7.0%	/	-4.1	2.2	-6.1%[15.4 µM]
51	Cc1sc2ncn(CC(=O)NCCN3CCOCC3)c(=O)c2c1S(=O)(=O)N1CCC(C)CC1
→ 1.3	2.9%	12.3%	0.9%	4.0	-0.7	-36.9%
52	Cc1ccc(C(=O)CCC(=O)Nc2ccc(Cl)c(S(=O)(=O)Nc3cccc(Cl)c3)c2)cc1
→ 5.9	10.1%	-5.6%	?	9.4	-6.6	-0.9%
53	CSc1ccccc1OCc1cc(C(=O)N(C)Cc2c(C)n[nH]c2C)no1
→ /	11.5%	-12.9%	-0.9%	11.6	4.2	8.8%[15.4 µM]
54	COc1cccc(-n2c(=O)c3sccc3n(CC(=O)NC3CCCCC3)c2=O)c1
→ 5.0	?	8.3%	-13.3%	3.8	-2.0	1.5%[15.4 µM]
55	CCOC(=O)c1ccccc1NC(=O)CSc1nc2c(sc(=S)n2CC)c(=O)[nH]1
→ /	/	-10.4%	-0.8%	/	0.0	-4.4%
56	O=C(CCS(=O)(=O)c1ccc2c(c1)NC(=O)CO2)NCCc1ccccc1
→ -1.0	8.4%	11.9%	0.6%	-13.6	0.0	-4.6%
57	CC(=O)c1cccc(NC(=O)C(C)OC(=O)/C=C/c2cccs2)c1 (stereo not given)
→ /	/	-2.4%	-2.1%	-14.7	4.7	-4.4%
58	COc1ccc(OC)c(NC(=O)c2ccc(S(=O)(=O)N3CCN(C)CC3)cc2)c1
→ -1.2	5.1%	4.0%	-1.6%	-10.9	0.0	-3.3%
59	CC1Oc2ccccc2N(CC(=O)Nc2ccc3c(c2)OCCO3)C1=O (stereo not given)
→ 4.0	10.6%	2.0%	-1.2%	8.2	0.5	-4.2%
60	Cc1ccc(S(=O)(=O)NNC(=O)C(O)(c2ccccc2)c2ccccc2)cc1
→ 6.3	11.3%	5.0%	1.6%	-1.5	-4.3	?
